HPGD block = HPGD (human) dehydrogenase inhibition. P15428. purified HPGD, NADH fluorescence kinetic, PGE2 substrate. Potency, µM, for the others: top-dose activity change, negative = inhibition, most hits filed as inhibitors. 4.3% of 150,000 active; active = well fitted inhibition curve with a large enough effect (not every such curve was filed as active); inconclusive = small, poorly fitted or top-dose-only effect, or another doubt; inactive = no such curve, though single readings can be large or run the other way;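 also: top concentration of the series not given in the record; plate controls included wells without enzyme; inactives centre near -10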
Target sequence (P15428 whole entry, looked up): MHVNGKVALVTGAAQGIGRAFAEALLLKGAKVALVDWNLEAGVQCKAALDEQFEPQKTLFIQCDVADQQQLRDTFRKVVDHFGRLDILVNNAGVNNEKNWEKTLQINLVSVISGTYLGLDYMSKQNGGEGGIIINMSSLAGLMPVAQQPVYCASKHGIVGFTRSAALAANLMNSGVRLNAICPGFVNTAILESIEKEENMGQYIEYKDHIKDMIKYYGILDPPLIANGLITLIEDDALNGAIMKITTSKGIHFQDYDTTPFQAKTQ
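NADH formation kinetics: reaction with 30 uM PGE2 and 1 mM NAD+ (final), 20 nM enzyme, Tris-HCl pH 8 with Tween 20, after 15 min compound preincubation at room temperature. Fluorescence change, last versus first of five reads.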
* marks the source's active call; other numbers are inactive results; ? = inconclusive; & = joins results of further samples. % is scaled to controls: 0 for no effect and ±100 for the full control effect; potency is read from the fitted curve at half-maximal effect. The list is partial; rates above refer to the full screens.

HPGD block	compound
-2.1%	Cc1ccc(NC(=O)C2CCCN2C(=O)NC2CCCCC2)c(C)c1 (centres undefined)
0.5%	CC(C)CC(=O)Nc1ccc(C(=O)NN2C(=O)c3ccccc3C2=O)cc1
?	Brc1ccc(/C=C/C=N/Nc2nc3ccccc3s2)cc1
?	Cc1[nH]c2ccccc2c1C(=O)C(=O)N1CCCc2ccccc21
-0.3%	CC(C)CC(=O)Nc1ccccc1-c1nnn(CC(=O)N2CCOCC2)n1
-11.5%	NCC1O[C@@H](OC2C(N)C[C@H](N)[C@@H](O[C@H]3OC(CO)C(O)C(N)C3O)C2O)C(N)C(O)C1O (some centres undefined)
-5.5%	NC(=O)c1c(NC(NC(=O)c2ccco2)(C(F)(F)F)C(F)(F)F)sc2c1CCCC2
-14.5%	Cc1noc(C)c1COC(=O)c1ccccc1Sc1ccccc1C#N
-11.0%	Cc1ccc(-c2nnc(Oc3ccc(NC(=O)c4ccccc4)cc3)c3ccccc23)cc1
-6.7%	NC(=O)CN1CCN(C(=O)Nc2ccccc2)CC1
-1.9%	CC(C)(C)c1nnc(N/N=C/c2ccc(Br)cc2)n(N)c1=O
-22.0%	COc1cccc(NC(=O)Nc2cccn(Cc3ccccc3)c2=O)c1
-14.4%	CCCC(=O)Nc1nc(-c2ccccc2)ns1
-9.1%	CC(C)CNC(=O)CSc1nnc(-c2ccccn2)n1Cc1ccccc1
-9.9%	Nc1ccc(SCCN2C(=O)c3ccccc3C2=O)cc1
?	CCC(=O)Oc1cccc(C(=O)Nc2ccc(-c3nnc(-c4ccco4)o3)cc2)c1
-8.8%	COC(=O)[C@@H]1C[C@@H]2CC[C@@H](O)C[C@@H]2N1Cc1ccccc1OS(=O)(=O)c1ccc(C)cc1
-3.1%	CCCOc1cccc(C2/C(=C(/O)c3ccc(F)cc3)C(=O)C(=O)N2CCN(C)C)c1 (centres undefined)
-12.1%	CCS(=O)(=O)CCSc1nc2ccccc2s1
-6.3%	c1cc(-c2nnc3n2CCCCC3)ccn1
-4.3%	Cc1c(C(=O)N2CCN(CCc3ccccc3)CC2)oc2ccccc12
-10.4%	Cc1ccc(C)n1-n1cnc2sc3c(c2c1=O)CCC3
-6.2%	COC(=O)c1cc(C(=O)OC)n(Cc2ccc(F)cc2)n1
-14.9%	Cc1nn2c(N)csc2nc1=O
5.5%	CCOC(=O)C1(C/C(C)=N/NC(N)=O)CC(C)(C)OC1=O (centres undefined)
-9.4%	CCCCNC(=O)c1sc2nc(C)cc(COC)c2c1-n1cccc1
-5.4%	CCOc1ccc(N(CC(=O)N/N=C/c2ccc(OC(C)C)cc2)S(C)(=O)=O)cc1
-4.4%	Cc1ccc(NC(=O)CSc2nnc(CCNC(=O)OC(C)(C)C)o2)c(C)c1
-22.6%	Cc1ccc(N2C(=O)C3C(C(=O)c4ccccc4)=NN(c4ccccc4)C3C2=O)cc1 (centres undefined)
-18.7%&-24.4%&-19.5%	O=C1CC(c2ccc(O)cc2)Oc2cc(O)cc(O)c21 (centres undefined)
-24.3%	CCOC(=O)Nc1c(C(=O)OC)[nH]c2cccc(OC)c12
-11.7%	CN(C(=O)c1ccco1)c1nc2c(s1)CCCC2
?	Cc1[nH]nc2c1-c1nc3ccccc3nc1C(C)(C)C2
1.0%	CO[C@]1(NC(=O)C2SC(=C(C(N)=O)C(=O)O)S2)C(=O)N2C(C(=O)O)=C(CSc3nnnn3C)CS[C@H]21 (some centres undefined)
-11.8%	Cc1ccccc1NC(=O)c1ccc2c(c1)OCCO2
?	COc1ccccc1-c1ccc(/C=C2/C=C(C)OC2=O)o1
-5.5%	Cc1cc(CSc2ccccc2)ccc1NC(=O)c1ccc(Br)cc1
-2.2%	O=C(COc1ccc2ccccc2c1)Nc1nc2ccccc2[nH]1
-11.3%	Cc1oc(/C=N/NC(=O)CN(c2ccccc2Cl)S(C)(=O)=O)cc1Br
-5.9%	O=C(ON=C1CCN(c2ccc([N+](=O)[O-])cc2)CC1)c1ccccc1
?	CN(C)N1C(N)=C(C#N)C(c2cccc3ccccc23)C2=C1CC(c1ccccc1)CC2=O (centres undefined)
-5.3%	COc1cccc(OCCOc2cccc(/C=N/n3cnnc3)c2)c1
-4.8%	CCOC(=O)c1cc(C(=O)n2cc(Cl)cn2)nn1C
-6.1%	CN(CC(=O)O)Cc1c(O)c(Cl)cc(Cl)c1Cl
-17.6%	CO/N=C/c1ccc(N2CCN(C(=O)c3cccc(Cl)c3)CC2)c([N+](=O)[O-])c1
-9.4%	COc1ccccc1N(C(=O)Cn1nnc2ccccc21)C(C(=O)NCc1ccco1)c1ccc(C)o1 (centres undefined)
-4.4%	Cc1cc(C(=O)NC2CCCc3ccccc32)no1 (centres undefined)
-8.7%	Nc1ccc(-c2ccc(N)cc2C(F)(F)F)c(C(F)(F)F)c1
-16.3%	CC(C)OC(=O)c1nnn(-c2nonc2N)c1CN1CCCCCC1
-3.7%	O=C(CN1C2=NCCCN2c2ccccc21)c1cccs1
?	COc1cccc2cc(C(=O)N3CCN(C(=O)c4ccccc4)CC3)c(=O)oc12
2.1%	CCNC(=O)CN(c1ccccc1)S(=O)(=O)c1ccc(Cl)cc1
-0.4%	CCCCN1C(=O)C2ON(c3ccccc3C)C(c3ccco3)C2C1=O (centres undefined)
-4.7%	O/N=C(/CCc1ccccc1)C1(O)CCCCC1
-9.2%	COC(=O)c1cc(=O)n(CCc2ccccc2)c(=Nc2ccc(F)cc2)s1
?	CCOC(=O)C(C)c1nc2ccccc2[nH]c1=O (centres undefined)
-8.1%	COc1ccccc1-c1nnc(NC(=O)c2ccccc2F)o1
-29.7%	COc1ccc(C/C(C)=N/NC(=S)Nc2ccccc2)cc1
-10.9%	COc1cccc(/C=N/NC(=O)C(=O)NCc2cccnc2)c1
5.01µM*	Cc1cccc(C(=O)N2CCCCCC2)c1

Exported with bars between the fields: entries from further up
canonical_smiles | HPGD block
CCC(=O)Oc1cccc(C(=O)Nc2ccc(-c3nnc(-c4ccco4)o3)cc2)c1 | ?
Cc1c(C(=O)N2CCN(CCc3ccccc3)CC2)oc2ccccc12 | -4.3%

Remaining list, next part:
HPGD block	compound
-26.6%	COC(=O)c1ccccc1NC(=O)c1cc2ncc(Br)cn2n1
-7.6%	COC(=O)c1cc(Br)c(=O)n(CCc2ccccc2)c1
?	CCn1c(CNC(=O)c2cccc(C)c2)nnc1SCC(=O)NC1CCCCC1C (centres undefined)
-2.5%	CCC(C)N(C(=O)c1csnn1)C(C(=O)NC(C)(C)C)c1ccccc1 (centres undefined)
-9.8%	Cc1cc(C)nc(NC(=NCCc2c[nH]c3ccccc23)NC(=O)Nc2cccc([N+](=O)[O-])c2)n1
2.1%	CCc1nnc(NC(=O)CSc2nc(C3CCCCC3)nc3ccccc23)s1
-8.5%	COc1ccccc1CCNCc1ccc(OC)c(OCc2ccccc2)c1
-15.1%	CSCc1cc(N(C)C)nc(SCc2ccc(Cl)cc2Cl)n1
-9.4%	CCN=C1SC(CC(=O)Nc2ccc(C)cc2)C(=O)N1CC (centres undefined)
-16.2%	CN(C(=O)c1cccnc1)c1nnc(-c2cnccn2)s1
?	N/C(=N\OC(=O)c1cccc2ccccc12)c1ccc(Br)cc1
?	Cc1ccsc1-c1ccnc(-n2cccc2)n1
-19.7%	O=C(Nc1ccc(S(=O)(=O)N2CCCc3ccccc32)cc1)C1CCCO1 (centres undefined)
?	Cc1ccc(S(=O)(=O)c2nc(N3CCOCC3)sc2Cl)cc1
-9.5%	C[C@H](N)[C@H](O)c1cccc(O)c1
-10.3%	Cc1ccc(NC(=O)CSc2ccccc2NC(=O)c2ccccc2Cl)cc1Cl
-24.1%	O=C(C/C=N/OCc1ccc(Cl)cc1Cl)c1ccc(Cl)cc1
-0.9%	Cc1ccc(C(=O)OCC(=O)NCC(F)(F)F)cc1C
-4.0%	COC(=O)Nc1ccc(S(=O)(=O)N2CCCCC2)cc1
-10.8%	Fc1ccc(N/N=C/c2ccncc2)c(F)c1
-28.2%	N#Cc1ccccc1CSc1ccccn1
-10.6%	N#Cc1ccc(OCC(=O)OCC(=O)Nc2cc(C(F)(F)F)ccc2N2CCOCC2)cc1
?	Cc1ccc(S(=O)(=O)NCCNC(=O)c2cc(OCC(F)(F)F)ccc2OCC(F)(F)F)cc1
-0.7%	CC1CCN(C(=O)N[C@@H](Cc2ccccc2)C(=O)O)CC1
1.5%	CCC(C)(C)n1nnnc1C(C(C)C)N(CCCO)Cc1cc2cc(C)ccc2[nH]c1=O (centres undefined)
0.4%	C/C(=N\NC(=O)c1ccn(C)n1)c1cccc(NC(=O)c2ccncc2)c1
-3.7%	C=CCn1c(COc2ccc(Cl)cc2)nnc1SCc1ccc(C#N)cc1
-11.2%	O=C(CSc1nnc(NC(=O)C2CC2)s1)Nc1ccc(F)cc1
-14.7%	CCCn1c(NC(=O)c2cccc(S(=O)(=O)N3CCCC3)c2)nc2ccccc21
-8.3%	COc1ccc(C2C(C(N)=O)=C(C)Nc3nc(-c4cccc(Cl)c4)nn32)cc1OC (centres undefined)

6 of the entries above in order of the HPGD block value, descending.
| Structure | HPGD block |
| --- | --- |
| CCC(C)(C)n1nnnc1C(C(C)C)N(CCCO)Cc1cc2cc(C)ccc2[nH]c1=O (centres undefined) | 1.5% |
| CC1CCN(C(=O)N[C@@H](Cc2ccccc2)C(=O)O)CC1 | -0.7% |
| COC(=O)Nc1ccc(S(=O)(=O)N2CCCCC2)cc1 | -4.0% |
| Cc1ccc(NC(=O)CSc2ccccc2NC(=O)c2ccccc2Cl)cc1Cl | -10.3% |
| Fc1ccc(N/N=C/c2ccncc2)c(F)c1 | -10.8% |
| O=C(CSc1nnc(NC(=O)C2CC2)s1)Nc1ccc(F)cc1 | -11.2% |

Carrying on.
HPGD block	compound
-7.1%	C=CCN=C(NC#N)SCC(=O)NCc1ccccc1
-11.0%	CO/N=C\Cc1oc(=O)c(NC(=O)c2ccccc2)cc1C(=O)OC
-18.2%	Cc1ccc2nc(-c3ccc(NC(=O)C(C)N4C(=O)c5ccccc5C4=O)cc3)sc2c1 (centres undefined)
?	CCOC(=O)c1c(NC(=O)c2ccccc2C)sc2c1CC(C)(C)OC2
-6.2%	COCCCNC(=O)C(F)(F)C(F)(F)C(=O)NCCCOC
-18.8%	CCOC(=O)CNC(=O)C1c2cc(OC)c(OC)cc2C(=O)N(C)C1c1ccccc1F (centres undefined)
-21.1%	COc1ccc(C2=NOC(C(=O)NCc3ccccc3)C2)cc1 (centres undefined)
-4.2%	O=C(Nn1c(SCc2ccccc2F)nc2ccsc2c1=O)c1ccccc1
-3.0%	CCC(=O)c1cn(CC(=O)NCc2cccnc2)c2ccccc12
25.1µM*	CCCCNC(=O)/C=C/c1ccc(OC)c(Br)c1
-22.5%	CN(C)c1ncc(S(=O)(=O)c2ccc(Cl)cc2)c(-c2ccccc2)n1
-1.6%	O=C(Nc1ccccc1)N1CC2(CCN(C(=O)c3ccncc3)CC2)C1
-1.9%	COc1ccc(OCC(=O)OC(C)CN2CCOCC2)cc1 (centres undefined)
-9.1%	CCCCN1C(=O)C(NC(=O)c2cccnc2)(C(F)(F)F)C2=C1CC(C)(C)CC2=O (centres undefined)
?	Cc1cc(NC(=O)c2cc(-c3ccncc3)nc3c(C)cccc23)no1
-14.5%	Cc1cccc(C(=O)Nc2onc(C)c2C#N)c1
-6.2%	Cn1c(=O)n(C)c2cc(NC(=O)C(F)(F)F)ccc21
-3.5%	Cc1ccc(S(=O)(=O)N(CC(=O)N/N=C/c2cccc(Cl)c2)c2cccc3cccnc23)cc1
-29.0%	O=C(CSc1nc2ccncc2[nH]1)Nc1ccccc1C(F)(F)F
-5.0%	Cc1ccc(C)c(OCC(O)CN2CCC(C)CC2)c1C (centres undefined)
-0.5%	NC(=O)C1(N2CCCCC2)CCN(C(=O)c2cccs2)CC1
-4.1%	Cc1sc2nc(C3CC3)nc(SCC(=O)N3CC(=O)Nc4ccccc43)c2c1C
?	CCSc1nc(-c2ccc(OC)cc2)ccc1C#N
-0.5%	O=S(=O)(c1ccc(Cl)cc1)N1CCN(C2CCN(Cc3ccccc3)CC2)CC1
-25.3%	Cc1ccc(S(=O)(=O)N2CCCC2C(=O)OCc2nc3ccccc3s2)cc1 (centres undefined)
-0.6%	CCOC(=O)c1nn(-c2ccccc2)c2nnc(Cc3ccc(C)cc3)c(=O)n12
-26.6%	CCN1CCc2c(sc(NC(=S)NC(=O)c3ccccc3)c2C#N)C1
-22.4%	Cc1ccc(C(=O)Oc2oc(-c3ccccc3)nc2C=Nc2ccc(N(C)C)cc2)cc1
-7.3%	CCn1c(COc2cccc(OC)c2)nnc1SCC(=O)N1CCOCC1
17.8µM*	COc1ccccc1CCNC(=O)C1CCCO1 (centres undefined)

HPGD block, hit marks shown above
HPGD block	compound
5.01µM*	Cc1cccc(C(=O)N2CCCCCC2)c1
25.1µM*	CCCCNC(=O)/C=C/c1ccc(OC)c(Br)c1
17.8µM*	COc1ccccc1CCNC(=O)C1CCCO1 (centres undefined)

Next results follow:
HPGD block	compound
28.2µM*	Cc1[nH]n(-c2ccccc2)c(=S)c1C=NCCCN=Cc1c(C)[nH]n(-c2ccccc2)c1=S
?	CC(C)(C)c1ccc(OCC(=O)N/N=C/c2ccc(N3CCOCC3)cc2)cc1
-13.0%	O=C(C1=C(O)C(=O)N(CCCN2CCOCC2)C1c1ccccn1)c1cccs1 (centres undefined)
-15.6%	Cc1nnc(NC(=O)c2ccc3ccccc3c2)o1
-4.6%	O=C(Nc1ccc(F)cc1)N1CCn2c(nc3ccccc32)C1
-14.4%	O=C(NC1CCS(=O)(=O)C1)C1CCCCN1S(=O)(=O)c1ccc(Cl)cc1 (centres undefined)
-5.5%	Cc1ccc(C(=O)C[n+]2cccc3ccccc32)cc1
-15.8%	Cc1cc(Nc2ccccc2F)n2nc(C)nc2n1
-20.2%	COc1cccc(SCc2noc(C(=O)NCC3CCCO3)c2C(=O)O)c1 (centres undefined)

Compound activity: PubChem, National Center for Advancing Translational Sciences (NCATS)
